Screening results from PubChem.
Menin-MLL FL inh = menin-MLL binding inhibition, fluorescein peptide. Fluorescence polarization, fluorescein-MLL peptide displacement from menin. FP activity change, % at 61.4 µM. 290,000 tested, under 10 active. AID 1766; inconclusive = falling polarisation curve, or a change in total fluorescence; inactive = total fluorescence flat and polarisation flat or rising; no compound was filed as active; the % refers to the polarisation; negative = inhibition;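 also: % of control where 0% means no effect; inhibitors lower the polarisation; unlabelled MLL peptide was the positive control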
ClpP mod = qHTS Assay for Activators of ClpP. AID 651965, 2013. Potency, µM (top dose mostly 57.5 µM), without a hit: top-dose activity change, negative = active. ATP-dependent Clp protease proteolytic subunit (Bacillus subtilis (strain 168)), P80244. 340,000 compounds, 1.9% hits. purified B. subtilis ClpP, FRET peptide cleavage, 20 min; active = well fitted falling curve with a large enough effect; inconclusive = small, poorly fitted or top-dose-only effect; inactive = no such curve, though single readings can be large or run the other way; also: potency is read from the fitted curve at half-maximal effect; the source files actives as falling curves though it sought activators and does not explain the sign; nearly all actives have a fitted effect of over 65% in size; many hits overshoot -100%
Target sequence (P80244 whole entry, looked up): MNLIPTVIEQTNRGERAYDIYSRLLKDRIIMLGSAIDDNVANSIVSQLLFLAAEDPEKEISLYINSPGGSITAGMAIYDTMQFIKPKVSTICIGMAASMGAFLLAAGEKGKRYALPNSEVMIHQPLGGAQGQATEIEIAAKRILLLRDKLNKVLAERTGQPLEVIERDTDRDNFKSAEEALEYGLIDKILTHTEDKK
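Purified B. subtilis ClpP, 10 microg/mL final in Tris/HCl pH8 with KCl, BSA, glycerol and Tween-20, cleaved an Abz/nitrotyrosine-quenched decapeptide. Fluorescence (ex 320, em 430) was read at 0 and 20 min at room temperature. Delta was normalized to 5.8 microM ADEP and DMSO/no-enzyme controls.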
TRPML1 inh = blocks the human TRPML1 channel. TRPML1-inducible cells, Ca2+ dye fluorescence, FDSS; stronger effect = lower value; inhibition of EC80 agonist-evoked calcium signal. activity change, negative = inhibition, % (no concentration beside the values). 390,000 compounds, 0.02% hits. AID 624415; in the data active means activity change below about -50%; inconclusive means about -30% to -50%; inactive means above about -30%;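 also: stimulus is agonist 54-4 at its EC80 concentration; % is scaled to controls: 0 for no effect and ±100 for the full control effect; compound concentration not given in the record; the text of the record puts the active cut at -80%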
Target sequence (Q9GZU1 whole entry, looked up): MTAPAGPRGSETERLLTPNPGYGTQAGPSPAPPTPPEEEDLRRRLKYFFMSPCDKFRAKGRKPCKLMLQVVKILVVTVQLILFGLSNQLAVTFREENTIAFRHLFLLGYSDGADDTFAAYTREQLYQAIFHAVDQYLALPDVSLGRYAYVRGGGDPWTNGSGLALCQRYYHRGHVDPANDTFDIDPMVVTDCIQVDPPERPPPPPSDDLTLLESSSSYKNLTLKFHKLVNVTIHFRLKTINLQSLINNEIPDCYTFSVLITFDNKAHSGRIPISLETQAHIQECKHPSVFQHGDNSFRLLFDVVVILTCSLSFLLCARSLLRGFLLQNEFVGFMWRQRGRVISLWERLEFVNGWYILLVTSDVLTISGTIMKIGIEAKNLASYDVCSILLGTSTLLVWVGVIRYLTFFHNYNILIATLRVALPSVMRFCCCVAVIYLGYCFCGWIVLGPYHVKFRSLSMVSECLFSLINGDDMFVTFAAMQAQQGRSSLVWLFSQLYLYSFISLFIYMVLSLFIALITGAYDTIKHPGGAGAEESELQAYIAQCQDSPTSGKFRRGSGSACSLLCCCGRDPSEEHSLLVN
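Calcium fluorescence in TRPML1-DL cells induced overnight with Tet: a 110 s read after compound pin addition, then a 110 s antagonist read after challenge with 54-4 at 4 uM final (EC80).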
TRPV1 PAM = enhances activation of the human vanilloid receptor TRPV1. Q8NER1. TRPV1-expressing cells, Fluo-8 calcium influx, capsaicin EC20 potentiation; host cell line not named in the record; control for the full effect not named in the record. potentiation, % at 8.33 µM. 320,000 compounds, 0.02% hits; active means potentiation above 80%; inconclusive means 30% to 80%; inactive means below 30%; also: 0% is about no effect
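Fluo-8 calcium influx in TRPV1-expressing cells, kinetic read (ex 480/em 520 nm). Compound added and read 3 min for agonist activity, followed by capsaicin at EC20 final and 2 min further read for enhancement.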
gsp agonist = activates gsp, the McCune-Albright syndrome mutation; gsp mutant cells, cAMP HTRF, 30 min; control for the full effect not named in the record; Potency, µM (highest dose often 76.9 µM), without a hit: top-dose activation (cAMP increase), usual class: activators; 340,000 compounds, 0.13% hits; AID 624287; active = well fitted activation curve with a large enough effect; inconclusive = small, poorly fitted or top-dose-only effect, or another doubt; inactive = no such curve, though single readings can be large or run the other way; cell line not stated here;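 also: phosphodiesterase inhibitor Ro 20-1724 added with compounds to block cAMP breakdown; potency is read from the fitted curve at half-maximal effect; nearly all actives have a fitted effect of over 60% in size; about a fifth of the inactives were tested at one dose only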
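Cells in DMEM/10% FBS with G418 were pretreated with compounds in DMSO plus […] (300 uM stock) for 30 min at 37C. cAMP was measured by HTRF (cAMP-d2 plus anti-cAMP antibody-K) after 30 min at room temperature.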
gsp antagonist = antagonists of gsp mutant (McCune-Albright syndrome); 340,000 compounds, 0.4% hits; gsp-mutant cells, cAMP HTRF, 30 min; control for the full effect not named in the record; AID 624288; Potency, µM (highest dose often 76.9 µM), for inactives: at the highest dose activity change, negative = inhibition, usual class: inhibitors; active = falling curve of any shape with a large fitted effect; inconclusive = falling curve, mostly with a smaller effect; inactive = flat or rising curve; cell line not stated here;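 also: intracellular cAMP measured with PDE inhibitor Ro 20-1724 present during compound exposure; potency is read from the fitted curve at half-maximal effect; % is scaled to controls: 0 for no effect and ±100 for the full control effect; nearly all actives have a fitted effect of over 65% in size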
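G418-selected cells were plated in DMEM/10% FBS for 16-24 h at 37C, then treated with compounds plus the PDE inhibitor […] (300 uM solution added) for 30 min at 37C. Intracellular cAMP was measured by HTRF after 30 min lysis at room temperature.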
Sfp inh = blocks B. subtilis Sfp PPTase activity | Biochemical Sfp PPTase activity, qHTS | 310,000 compounds, 3.5% hits | AID 1490 | Q9F4F7 | Potency, µM, for the others: max response, negative = inhibition, hits mostly inhibitors; active = well fitted inhibition curve with a large enough effect; inconclusive = small, poorly fitted or top-dose-only effect, or another doubt; inactive = no such curve, though single readings can be large or run the other way;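 also: the enzyme is Sfp with the accession as filed and its product quenches rhodamine fluorescence; potency is read from the fitted curve at half-maximal effect; 0% = enzyme reaction without inhibitor and -100% = no enzyme wells; top concentration of the series not given in the record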
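Sfp 15 nM + cpd, 15 min RT; start w/ rhodamine-CoA 5 uM, BHQ-2-YbbR 12.5 uM (final); 50 mM Hepes pH 7.6, 10 mM MgCl2, 0.01% NP-40, 0.01% BSA; read 525/598 nm at 0 and 30 min.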
Active calls of the source: *; ? = inconclusive; nt = not tested or not shown; & = joins results of further samples; [ ] = another dose, or the depositor's remark. An unsorted share of the library; 4.9% or so of the library scored in one or more.

SMILES	Menin-MLL FL inh	ClpP mod	TRPML1 inh	TRPV1 PAM	gsp agonist	gsp antagonist	Sfp inh
CCc1ccc(-n2nnnc2SCC(=O)Nc2ccc(NC(C)=O)cc2)cc1	-2.5	1.0%	3.3	29.0	-0.8%	-2.4%	-2.3%
COc1ccccc1N1CCN(C2CCCN(C(=O)c3ccoc3)C2)CC1 (stereo not given)	nt	nt	-1.0	14.9	-0.4%	7.3%	15.7%
COc1cc(C(=O)NNC(=O)c2cc(=O)[nH]c3ccccc23)cc(OC)c1OC	nt	0.0%	-4.9	-8.0	8.0%[15.4 µM]	3.2%	nt
O=C(NCc1cccc(Cl)c1)c1ccc(S(=O)(=O)N2CCCCC2)cc1	nt	1.6%	-5.7	nt	-32.0%[inhibitor]	nt	nt
CC1CCC(NC(=O)c2ccc(CS(=O)(=O)Cc3ccccc3F)o2)CC1 (stereo not given)	9.0	0.0%	2.8	4.8	4.5%	-17.6%	12.9%
COc1ccc(S(=O)(=O)N/N=C\c2ccc([N+](=O)[O-])o2)c(OC)c1	nt	2.1%	-4.6	-12.3	?	17.4%	4.9%
CC(Sc1nnc2ccccn12)C(=O)NCc1ccc2c(c1)OCO2 (stereo not given)	0.1	-7.8%	4.7	0.6	6.7%	11.8%	4.3%
O=C(CCN1C(=O)c2ccncc2C1=O)NCc1ccc(Cl)cc1	-0.6	1.4%	-7.3	0.8	13.3%	10.6%	5.9%
CC(CN(C)C)CN1c2ccccc2CCc2ccccc21 (stereo not given)	1.4&0.2&0.2	0.6%	2.3	-0.8	nt	0.8%	-7.4%&-0.1%
Cc1ccc(C(=O)NC(=S)Nc2ccc(N3CCOCC3)cc2)c(C)c1	7.8	nt	0.9	-1.3	1.3%	12.1%	-7.5%
NC(=O)C1CCN(c2nc3ccccc3nc2NS(=O)(=O)c2ccc(Br)cc2)CC1	nt	-1.6%	-0.7	nt	4.3%[15.4 µM]	-8.4%	nt
O=C(O)c1cc(NCc2ccc3c(c2)OCO3)ccc1N1CCOCC1	1.3	?	-8.9	11.1	0.0%	-2.0%	2.9%
O=C(CN(C(=O)C1CSC(=O)C1)c1cccc(F)c1)NCc1ccc2c(c1)OCO2 (stereo not given)	1.9	nt	15.7	4.5	8.4%[15.4 µM]	-7.9%	11.4%
CSCCC(NC(=O)c1ccco1)C(=O)N(C)CC(=O)Nc1ccccc1Br (stereo not given)	nt	-25.0%	-4.6	5.0	?	3.7%	nt
COc1ccc(CCNC(=O)CSc2nc3cc(Cl)ccc3o2)cc1OC	1.7	-0.6%	4.4	-12.7	-41.6%	-5.2%	4.5%
O=C(COc1ccc2c(c1)OCO2)Nc1nnc(Cc2ccccc2)s1	nt	nt	-13.5	4.0	31.0%[15.4 µM]	8.5%	-91.4%
COc1ccccc1Cn1c(=S)[nH]c2cc(C(=O)N3CCCC(C)C3)ccc2c1=O (stereo not given)	nt	-1.9%	23.6	nt	-2.1%	nt	nt
Oc1ccc(Cl)cc1C=NCCc1ccccc1	nt	-2.4%	12.4	-2.4	-16.9%	-2.1%	5.4%
CC[C@H](C)C(C(=O)N1CCN(C(=O)OC(C)(C)C)CC1)n1cc(C(Cc2ccc(O)cc2)NC(=O)OC(C)(C)C)nn1 (stereo not given in full)	-0.2	-0.1%	26.6	-6.6	2.8%	-10.2%	1.0%
CC(=O)c1ccc(NC(=O)C2CC(c3ccc(F)cc3)=NO2)cc1 (stereo not given)	3.4	0.7%	-2.2	-20.0	14.0%	8.7%	27.6%
Fc1ccccc1/C=N/n1c(C2CCCCC2)n[nH]c1=S	-5.0	1.4%	nt	-7.2	-22.7%	-27.3%	?
NC(=O)c1ccccc1OCC(=O)N1CCCc2ccccc21	-8.6	nt	0.2	-4.2	25.0%	3.2%	-0.1%
C[C@H](CO)N1C[C@H](C)[C@@H](CN(C)S(=O)(=O)c2cccs2)Oc2ccc(NC(=O)CCC(F)(F)F)cc2C1=O	nt	-2.2%	9.6	nt	nt	3.6%	nt
CC(Oc1ccc(Cl)cc1C(N)=O)C(=O)N1CCc2ccccc21 (stereo not given)	nt	-7.7%	46.4	nt	6.2%[15.4 µM]	-0.8%	nt
COc1ccc(Cl)cc1NC(=O)CCS(=O)(=O)c1ccc(C)cc1	9.7	-2.4%	5.9	9.6	0.2%[15.4 µM]	-7.5%	7.9%

Entries of single compounds from above:
CC[C@H](C)C(C(=O)N1CCN(C(=O)OC(C)(C)C)CC1)n1cc(C(Cc2ccc(O)cc2)NC(=O)OC(C)(C)C)nn1 (stereo not given in full) as listed: Menin-MLL FL inh: -0.2; ClpP mod: -0.1%; TRPML1 inh: 26.6; TRPV1 PAM: -6.6; gsp agonist: 2.8%; gsp antagonist: -10.2%; Sfp inh: 1.0%
O=C(NCc1cccc(Cl)c1)c1ccc(S(=O)(=O)N2CCCCC2)cc1 as listed: Menin-MLL FL inh: nt; ClpP mod: 1.6%; TRPML1 inh: -5.7; TRPV1 PAM: nt; gsp agonist: -32.0%[inhibitor]; gsp antagonist: nt; Sfp inh: nt

(further entries)
SMILES	Menin-MLL FL inh	ClpP mod	TRPML1 inh	TRPV1 PAM	gsp agonist	gsp antagonist	Sfp inh
CC(C)CC(c1nnnn1C1CCCCC1)N1CCN(C(=O)c2ccco2)CC1 (stereo not given)	nt	nt	28.0	-13.5	8.8%[15.4 µM]	-4.5%	-1.0%
CSc1cccc(NC(=S)N2CCCN(Cc3cccc(Cl)c3)C2)c1	-2.7	nt	-18.0	14.6	4.0%[15.4 µM]	-0.5%	6.5%
CCCC/C=C/[C@H](c1ccccc1)[C@H](CO)Cc1ccccc1	-0.9	nt	7.0	nt	nt	nt	7.4%
Cc1noc(C)c1S(=O)(=O)N(C)C[C@H]1Oc2c(NC(=O)Nc3ccc(C(F)(F)F)cc3)cccc2C(=O)N([C@H](C)CO)C[C@@H]1C	nt	1.1%	21.7	nt	nt	-20.4%	nt
CCOC(=O)CSc1nnc(CSc2nc3sc4c(c3c(=O)[nH]2)CCCC4)n1-c1ccccc1	-2.2	-1.5%	-11.1	26.1	?	-18.1%	2.7%
c1ccc2oc(-c3ccn[nH]3)cc2c1	2.3	nt	-9.0	-14.4	-5.6%[15.4 µM]	1.0%	-8.5%
COc1cccc(CN2CCC(Oc3ccc(C(=O)NCc4ccccn4)cc3)CC2)c1O	1.1	0.1%	-16.2	20.0	-1.5%	7.6%	13.0%
CC(C)c1ccc(OCC(=O)Nc2ccncc2)cc1	1.0	nt	6.7	-13.9	6.5%	-15.6%	24.9%
COc1ccc(N2CC(C(=O)Nc3nnc(SCc4cccnc4)s3)CC2=O)cc1 (stereo not given)	nt	-1.6%	-17.3	-5.0	-35.7%[inhibitor]	-19.0%	-14.7%
CCOc1ccc(C2CC(c3cccc(OC)c3)Nc3ncnn32)cc1 (stereo not given)	7.4	-1.9%	14.5	nt	-17.8%	-4.4%	1.7%
COC(=O)CNC(=O)C1CCN(c2nc(C)cc(C)n2)CC1	-3.0	31.6µM*	11.9	-3.5	12.3%	-4.6%	15.3%
COc1ccc(NC(=S)NCC(c2cccnc2)N2CCOCC2)cc1 (stereo not given)	2.8	nt	-10.9	-4.3	24.3%	11.2%	?
O=C(CC(=O)N1CCN(c2ccccn2)CC1)Nc1ccc2nc3n(c(=O)c2c1)CCCCC3	1.8	-17.8%	17.0	-8.8	?	3.5%	22.3%
COc1cc([N+](=O)[O-])c2nccnc2c1	1.1	nt	-4.1	7.6	-62.0%[inhibitor]	-7.6%	-3.6%
Cn1c(Cc2ccc3c(c2)OCO3)nnc1SCC(=O)NC(C)(C)C	-1.3	-0.1%	-21.3	1.0	0.2%	7.9%	15.0%
COc1ccc(CCNC(=O)C2CCN(Cc3nc(-c4cccc(Cl)c4)oc3C)CC2)cc1OC	1.0	-1.6%	14.0	8.6	5.3%	0.0%	1.6%
CN1C(=O)C(CC(=O)Nc2ccc(Cl)cc2)N(Cc2ccco2)C1=S (stereo not given)	7.6	-1.2%	10.6	5.6	1.4%	6.6%	17.8µM*
CCCCc1cc(=O)oc2c(C)c(OCC(=O)N3CCCC3)ccc12	nt	12.6µM*	-2.7	-6.2	-14.9%	-8.4%	5.0%
CCOc1ccc(NC2=NCCC(=O)N2Cc2cccs2)cc1	2.2	0.4%	-0.5	?	-18.3%	-4.0%	-24.2%
CCOc1ccc(Cc2nc(N)nc(N)n2)cc1	2.0	-0.7%	13.1	-1.9	11.7%	12.9%	12.1%
NNC(=O)CC1NCCN(Cc2ccccc2)C1=O (stereo not given)	-1.5	4.7%	-16.4	-7.7	26.6%[15.4 µM]	6.1%	20.3%
CC(=O)c1c(C)[nH]c(C(=O)OCC(=O)NNC(=O)c2ccc([N+](=O)[O-])cc2)c1C	nt	nt	-10.3	nt	15.2%	-0.8%	nt
O=C(O)C1C2C=CC3(O2)C1C(=O)N1c2ccccc2C2OCCC2C13 (stereo not given)	3.0	-4.0%	2.6	-1.1	15.7%	1.7%	14.0%
Cc1ccc(NC(=O)C2=C(C(=O)O)CCCC2)cc1F	0.7	nt	21.7	26.9	?	11.4%	8.6%

Entries above printed as active in Sfp inh.
| smiles | Menin-MLL FL inh | TRPML1 inh | gsp agonist | gsp antagonist | Sfp inh |
| --- | --- | --- | --- | --- | --- |
| CN1C(=O)C(CC(=O)Nc2ccc(Cl)cc2)N(Cc2ccco2)C1=S (stereo not given) | 7.6 | 10.6 | 1.4% | 6.6% | 17.8µM* |

Results in gsp antagonist (4 entries from above):
smiles	gsp antagonist
Cn1c(Cc2ccc3c(c2)OCO3)nnc1SCC(=O)NC(C)(C)C	7.9%
COc1ccc(CCNC(=O)C2CCN(Cc3nc(-c4cccc(Cl)c4)oc3C)CC2)cc1OC	0.0%
CN1C(=O)C(CC(=O)Nc2ccc(Cl)cc2)N(Cc2ccco2)C1=S (stereo not given)	6.6%
CCCCc1cc(=O)oc2c(C)c(OCC(=O)N3CCCC3)ccc12	-8.4%
